T cruzi repl = T. cruzi replication inhibition; T. cruzi beta-gal in NIH3T3, luminescence, 90 h; inhibition, % (no concentration beside the values); hit rate 1.4% among 300,000; AID 1885;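 active = mean inhibition across valid replicates above about 55%, limit read from the data; inconclusive = mean below that limit but half or more replicates reach it; inactive = mean below it, under half of replicates reach it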;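 note: signal also drops with host cell toxicity which is not excluded here; 0% = plate median of DMSO wells and 100% = zero luminescence signal; higher percent means less beta-gal luminescence so fewer parasites; stock transfer was 50 nL into about 50 µL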
Calb FLC = C. albicans growth modulation with fluconazole; C. albicans CaCi-2 (fluconazole-resistant clinical isolate) + fluconazole, Alamar Blue growth, 48 h; hit rate 0.57% among 300,000; growth inhibition, % (test concentration not listed);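 active = most replicates above 75%; inconclusive = exactly half above 75%; inactive = most below 75%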;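 note: all wells also contain fluconazole at 8 µg/ml as a sub-toxic cotreatment; 0% = median of DMSO wells and 100% = median of geldanamycin control wells; wells of about 8 µL received 7.5 nL stock; the first replicate is given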
Bfl-1 A1 inh = inhibitors of the anti-apoptotic protein A1, read as caspase activation. hit rate 0.066% among 330,000. caspase activation, % (no concentration beside the values). MEF A1-2A-BIM cells, Caspase-Glo 3/7 luminescence, 3 h; percent of clofoctol response, vehicle zero;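 active = over half of replicate activation scores above 10%, or exactly half above 10 with the replicate mean above 10; inconclusive = replicate mean below 10 yet half the replicates above 10; inactive = over half of replicates below 10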;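 note: wells of about 30 µL received 50 nL stock; many hits fall short of the cut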
B2AR ag = human beta-2 adrenergic receptor agonism by FAP; P07550; Am2.2-beta2AR cells, FAP receptor internalization, flow cytometry; reference of the scale not given here; response, % (concentration not given with the values); hit rate 0.43% among 340,000; AID 504454;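 active = response above a set limit, near 3 SD of response in nonfluorescent compounds, cut at about 42% in these data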;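 note: stock transfer was 100 nL into about 11 µL; a reference agonist was the positive control; negative values mostly stem from fluorescent compounds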
Target sequence (P07550 whole entry, looked up): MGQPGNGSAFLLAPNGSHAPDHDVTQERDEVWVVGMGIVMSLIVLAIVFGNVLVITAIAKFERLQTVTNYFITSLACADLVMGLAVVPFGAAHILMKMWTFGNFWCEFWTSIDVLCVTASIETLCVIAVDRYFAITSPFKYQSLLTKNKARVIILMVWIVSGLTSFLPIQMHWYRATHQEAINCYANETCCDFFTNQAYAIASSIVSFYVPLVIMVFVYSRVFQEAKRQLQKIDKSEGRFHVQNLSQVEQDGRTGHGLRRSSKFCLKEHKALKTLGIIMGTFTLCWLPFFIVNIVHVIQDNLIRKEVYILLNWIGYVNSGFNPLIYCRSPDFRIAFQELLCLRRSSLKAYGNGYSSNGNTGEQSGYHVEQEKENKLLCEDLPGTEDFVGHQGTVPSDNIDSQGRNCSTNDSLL
LANA-H2A inh = blocks KSHV LANA binding to histone H2A/H2B; cell-free LANA-H2A/H2B peptide, fluorescence polarization; AID 2629; inhibition, % (no concentration beside the values); hit rate 0.6% among 320,000; Q9QR71; in the data active = inhibition mostly above about 10%, no sharp cut-off; inactive = mostly below about 6.7%;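 note: stock transfer was 7.5 nL into about 10 µL; 0% = median of vehicle wells and 100% = median of positive control wells; one replicate is shown; the record names a cut of 25% in any replicate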
Beta cell apopt = blocks beta cell apoptosis; hit rate 0.8% among 300,000; protection from apoptosis, % (test concentration not listed); AID 435005; INS-1E cytokine-induced death, ATP luminescence, 48 h; percent of positive-control rescue, neutral wells zero;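 active = all replicates at 75% or more, or half of them and the mean; inconclusive = half reach 75% but not the mean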;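 note: 0% = cytokine-treated negative control wells and 100% = positive control rescue; higher means more ATP so stronger rescue from cytokine killing; wells of about 40 µL received 100 nL stock; the first replicate is given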
UCH37 DUB inh = inhibitors of human deubiquitinating enzyme UCH37; inhibition, % (no concentration beside the values); purified proteasome/UCH37, Ub-AMC cleavage fluorescence; AID 588478; Q9Y5K5; hit rate 0.33% among 330,000;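 active = mean of two replicates above 20%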;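 note: 0% = compound-free wells with enzyme and 100% = wells lacking proteasome; stock transfer was 100 nL into about 20 µL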
Target sequence (Q9Y5K5 whole entry, looked up): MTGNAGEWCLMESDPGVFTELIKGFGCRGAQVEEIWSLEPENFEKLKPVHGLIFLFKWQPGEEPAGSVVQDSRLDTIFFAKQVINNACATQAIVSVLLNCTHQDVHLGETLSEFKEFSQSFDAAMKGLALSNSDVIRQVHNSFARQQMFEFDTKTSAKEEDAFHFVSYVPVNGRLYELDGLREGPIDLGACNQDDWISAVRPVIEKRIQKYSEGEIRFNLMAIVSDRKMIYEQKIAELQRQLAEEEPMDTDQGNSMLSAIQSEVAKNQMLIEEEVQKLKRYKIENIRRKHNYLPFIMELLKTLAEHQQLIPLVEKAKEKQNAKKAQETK
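Material: human UCH37 enzyme supplied as purified proteasome complex. Measure: % inhibition of Ub-AMC cleavage fluorescence. Medium: pH 7.4 Tris-HCl (50 mM) with ovalbumin, ATP-MgCl2, DTT. Times: 30 min preincubation with enzyme, 25 min cleavage at room temperature. Detection: AMC fluorescence intensity at 355/460 nm.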
RanGTP-Imp inh = disruptors of Ran-importin-beta complex formation – biochemical, FRET, CFP-Ran, YFP-importin-beta, homogeneous, primary screen; cell-free CFP-Ran/YFP-importin-beta FRET ratio; AID 2216; inhibition, % (test concentration not listed); hit rate 1.1% among 300,000;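 active = most replicates above 15%; inconclusive = exactly half above 15%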;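 note: 0% = DMSO wells and 100% = Ran loaded with GDP instead of GTP; wells of about 40 µL received 100 nL stock; the first replicate is given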
Active calls of the source: *; u = inconclusive; x = not tested or not shown.

SMILES	T cruzi repl	Calb FLC	Bfl-1 A1 inh	B2AR ag	LANA-H2A inh	Beta cell apopt	UCH37 DUB inh	RanGTP-Imp inh
CCOC(=O)c1oc2ccc(Br)cc2c1COC(=O)C1=COCCO1	3	4	1.2	24	0.4	-9	3.1	6.8
O=C(Cc1nn[nH]n1)NCc1ccccc1Cl	-2	-13	2.5	8	1.9	-5	-0.1	-1.7
O=C(Nc1cccc(Cl)c1)Nc1ccc2c(c1)C(=O)OC2	2	-13	0.7	3	6.7	-9	1.4	-1.8
CCOC(=O)c1nnn(-c2nonc2NC(C)=O)c1C	4	-1	0.5	10	-1.7	-7	2.2	-4.1
COc1ccccc1OCCn1cc(/C=N/n2cnnc2)c2ccccc21	-7	1	-0.1	-3	1.5	-3	x	-2.1
Cn1c(OCc2ccc3c(c2)OCO3)nc2c1c(=O)n(Cc1cccc(Cl)c1)c(=O)n2C	14	-2	-0.1	6	-1.0	3	3.6	-2.1
O=C(Cn1cnc2ccccc2c1=O)NNC(=O)c1ccccc1F	x	x	-2.4	2	-3.7	7	0.7	x
O=C(CSc1cccc2cccnc12)OCC(=O)c1ccc(Br)cc1	-25	-2	0.7	1	-11	-7	-6.7	2.3
Cn1nnnc1SCC(=O)Nc1ncc(Cl)cc1Cl	-10	0	0.4	3	3.4	0	-3.8	0.0
CCN(CC)c1ccc(S(=O)(=O)N2CCCCC2)cc1NC(=O)C1=COCCO1	61*	2	0.1	13	-0.9	1	0.1	2.8
COc1ccc(C(=O)Nc2ccnn2C2CCN(C(=O)c3cccnc3)CC2)cc1	-10	-19	0.2	-5	-4.0	1	1.1	0.6
COc1ccc(NC(=O)c2c(N)no[n+]2[O-])cc1	39	101*	-0.8	4	1.2	3	6.0	2.3
CCOc1cc(C(=O)Nc2ccc(S(=O)(=O)Nc3onc(C)c3C)cc2)cc(OCC)c1OCC	x	x	0.3	-2	6.8	-4	2.0	x
COc1cccc(C(=O)Nc2c3c(nc4c2CCC4)CCCC3)c1	-18	-16	0.6	-4	2.9	5	5.0	1.2
O=C(/C=C/c1ccccc1Cl)c1ccc(O)cc1	-10	4	-4.2	8	-0.5	-3	7.1	2.3
CCCCN(CC)CCCNC(=O)c1csc2c1CCCCC2	44	-26	-0.1	6	6.7	6	0.9	0.7
CCN1C(=O)CC(N2CCC(C(=O)N3CCOCC3)CC2)C1=O (stereo not given)	-5	-5	0.1	3	-3.3	0	2.1	-0.9
COC(=O)c1ccc(NC(=O)Nc2ccc(F)c(Cl)c2)cc1	22	34	0.1	-2	1.4	-5	3.5	-3.8
CCCSC1=C(C#N)C(c2cccnc2)C(C(=O)OCC)=C(c2ccccc2)N1 (stereo not given)	0	-2	-0.3	1	7.3	4	3.7	-1.2
CCC(=O)Nc1cc(C(=O)O)ccc1Sc1ccc(Cl)cc1	-1	-6	0.9	1	-3.1	-2	-1.7	1.8
COc1ccc2c(c1)[nH]c1c(=O)n(CCC3=CCCCC3)cnc12	16	-1	0.0	-3	0.2	6	-1.1	1.1
Cc1ccc2cc3cc(C(=O)N(CC(=O)NC4CCCC4)c4cccc(C)c4C)sc3nc2c1	58*	9	-0.1	5	1.5	42	-4.3	0.3
CC(C)N(Cc1nc(-c2ccc(Cl)cc2)no1)C(=O)/C=C/c1ccccc1	4	-1	-0.6	-4	5.8	-12	-11	2.9
O=C(N/N=C/c1cccnc1)c1cccc(Br)c1	0	-3	1.9	0	-0.1	-5	x	0.1
COCCNc1nnc(SC(C)C(=O)Nc2ccc(-c3nc4ccc(C)cc4s3)cc2)s1 (stereo not given)	0	50	-0.5	10	3.0	-16	-71	-4.4
COc1ccc(C(=O)CSc2nc3cccnc3n2C)cc1	-4	-7	-0.5	-7	1.4	-7	4.6	-2.1
COc1cccc(NC(=O)CN(C)C(=O)CCNS(=O)(=O)c2ccc(C)cc2)c1	x	x	0.5	-1	1.3	-4	0.4	x
O=C(COC(=O)Cc1ccsc1)NC1CCCCCC1	-8	x	-0.5	0	0.2	2	-1.8	-3.9
O=C(Nc1ccccc1C(=O)O)c1cc(S(=O)(=O)NCc2ccccc2)ccc1Cl	-4	24	0.5	-3	5.8	-2	1.6	1.7
O=C(NCc1ccc(Cl)cc1)C(=O)NCC1OCCN1S(=O)(=O)c1ccc2c(c1)OCCO2 (stereo not given)	3	-3	-0.2	0	-2.4	5	0.2	8.7
COc1ccc(N(CC(=O)Nc2ccc(C)c(C)c2)S(=O)(=O)c2c(C)n[nH]c2C)cc1	5	17	0.6	-2	0.1	-2	7.1	-0.1
O=C(COC(=O)c1cc(-c2ccccc2Cl)nc2ccccc12)Nc1ncc(C(F)(F)F)cc1Cl	3	4	0.3	3	2.0	5	-1.8	0.5
CCC(=O)C1=C(N2CCCC2)CC(C)(C)CC1=O	-16	3	0.3	4	0.1	1	2.2	0.0
CS(=O)(=O)N(CC(=O)Nc1ccccc1C(=O)NCc1ccco1)c1ccc2c(c1)OCCO2	10	14	-0.9	-2	7.9	-13	3.8	2.2
COc1cccc(NC(=S)NCc2cccnc2)c1	-8	20	1.3	7	1.0	0	3.6	-1.8
COc1ccccc1N1CCN(C(=O)CSc2nc3ccccc3o2)CC1	-17	u	0.1	1	-5.6	-4	1.6	0.8
Cc1oc2cc3oc(=O)c(CC(=O)NCCC(=O)O)c(C)c3cc2c1C	-7	-2	x	3	x	x	-31	0.0
COC(=O)c1cc2ccsc2n1CC(=O)Nc1ccc(N(C)C)cc1	55*	-15	0.2	-2	1.6	7	1.4	2.3
O=C(Oc1ccc2c(=O)c(Oc3ccc4ccccc4c3)coc2c1)c1cncc(Br)c1	-7	-10	-1.2	0	0.9	0	-1.1	-6.0
Cc1ccc(-n2ncc3c(=O)[nH]cnc32)c(C)c1	-15	-3	0.1	0	0.0	-6	-2.4	-0.4
Cc1nc2c(-c3ccc(F)cc3)cnn2c2c1CCC2	-25	-8	-0.7	-15	3.0	7	-217	-0.2
C=CCn1c(SCc2ccc(Cl)cc2)nc2c1c(=O)[nH]c(=O)n2C	10	-8	-1.3	2	2.3	x	1.6	u
Cc1ccnc(NC(=S)NC(=O)/C=C/c2ccco2)c1	-2	2	0.1	14	-1.0	4	4.4	-22
CCCn1cc(CN2CCc3ccc(NC(=O)C4CCCO4)cc3C2)c(C)n1 (stereo not given)	19	-7	0.1	-1	-0.8	-1	1.7	0.1
O=S(=O)(c1ccc(N2CCN(S(=O)(=O)c3ccc4c(c3)OCCO4)CC2)nc1)N1CCCC1	-13	-20	-0.2	3	-2.8	5	0.8	3.5
CC(C)C[C@@H]1NC(=O)[C@H](C(C)C)NC(=O)c2cc([N+](=O)[O-])cc(I)c2NCC[C@@H](C(N)=O)NC1=O	-3	15	1.1	x	15	-3	0.9	-3.1
COc1ccc(C2(c3ccc(OC)cc3)NC(=O)N(CC(=O)N(C)C)C2=O)cc1	2	2	0.2	-2	7.8	-6	1.7	3.4
Cc1cccc(C)c1NC(=O)C(=O)NCC1CCCN1S(=O)(=O)c1cccs1 (stereo not given)	-2	-5	-0.5	0	4.0	-1	4.1	-1.4
Cc1ccc(-c2ccc(SCC(=O)N3CCN(c4ccccc4)CC3)nn2)cc1	9	-3	-0.7	-1	0.8	-2	-2.1	-75
CCCCC[C@H](O)/C=C/C1=C(CCCCCCC(=O)O)C(=O)CC1	6	-1	0.4	-6	15	1	3.2	6.5
O=C(c1ccc2c(c1)N(Cc1ccccc1)CCS2)N1CCCCC1	4	1	1.2	24	-1.7	-4	-43	-0.9
COc1cccc(NC(=O)CC(c2ccc(OC(C)C)cc2)c2ccccc2OC)c1 (stereo not given)	14	10	-0.3	-10	-2.5	3	-0.6	0.5
C=CCn1c(C)nnc1SCC(=O)Nc1oc(C)c2c(C)n[nH]c(=O)c12	-5	-3	-0.2	-3	-0.6	-4	2.1	1.6
Cc1ccc(CC(=O)N/N=C/c2ccc(OC(=O)c3ccc([N+](=O)[O-])cc3)cc2)cc1	-17	-4	0.4	0	5.0	-2	x	0.7
Cc1cccc(N(CC(=O)Nc2c(C)n(C)n(-c3ccccc3)c2=O)S(C)(=O)=O)c1C	-12	1	0.1	13	4.7	8	0.4	-3.7
O=C(c1ccc(-n2cncn2)c([N+](=O)[O-])c1)N1CCN(c2cccc(Cl)c2)CC1	2	20	0.1	2	2.5	-2	4.5	-1.3
CCNC(=O)NC(=O)C(C)OC(=O)C(C)(C)Oc1ccc(Cl)cc1 (stereo not given)	-3	8	-0.2	-7	1.4	-4	2.4	-0.2
Cc1cccc(C(=O)NCC(C)NC(=O)c2cccc(C)c2)c1 (stereo not given)	-5	1	0.6	-7	2.1	-3	2.7	-3.5
CCOc1ccc2nc(N/C(N)=N/C(=S)Nc3ccc(OC)cc3)nc(C)c2c1	30	23	-0.1	-5	-4.9	4	4.1	-0.1
CCOC(=O)c1sc(NC(=O)c2cccs2)cc1C	20	-12	-0.3	-15	3.6	14	-14	0.1
(continued)
SMILES	T cruzi repl	Calb FLC	Bfl-1 A1 inh	B2AR ag	LANA-H2A inh	Beta cell apopt	UCH37 DUB inh	RanGTP-Imp inh
COc1ccc(CCN(Cc2ccccn2)C(=S)Nc2ccccc2F)cc1OC	-4	-8	-0.1	15	0.8	3	2.7	-2.3
CCOC(=O)C[C@H]1c2cc(F)ccc2S(=O)(=O)N1C1CCCC1	11	0	2.1	-3	0.1	-4	0.3	-0.3
CCC(=O)Nc1cccc(-c2csc(-c3ccccc3)n2)c1	6	-1	-0.3	-4	5.8	6	1.5	-0.5
O=C(NCC(c1cccs1)N1CCOCC1)c1ccc(Cl)s1 (stereo not given)	-36	-14	0.3	-10	0.8	2	4.1	u
CCN(CC)CCOC(=O)CCc1cccc2ccccc12	-12	1	0.0	-4	4.1	-8	-0.3	-2.1
Cc1cc(N2CCCC2)nc2ccc(NC(=S)NC(C)C)cc12	20	-7	-0.1	-4	-2.3	0	-1.9	2.7
Cc1noc(COc2ccccc2OCc2onc(C)c2Cl)c1Cl	0	15	0.9	3	3.8	x	1.6	1.1
O=C(Nc1ccc(N2CCN(C(=O)c3cccs3)CC2)cc1)c1cccnc1Cl	2	31	-3.3	1	3.3	2	0.3	-2.3
Cc1ccc(C(=O)NCC(=O)OCc2c(F)cccc2Cl)s1	x	x	-0.8	-2	-3.6	-4	-1.2	x
O=C(COc1ccccc1)NCc1cccs1	-9	-14	-0.3	1	2.9	-3	-2.0	0.7
CC(C)CN(CC(C)C)C(=O)Nc1ccccc1F	-9	12	0.4	0	1.6	0	0.9	4.7
CCOC(=O)C1(CCSC)NC(c2ccco2)C2C(=O)N(C)C(=O)C21 (stereo not given)	-8	-7	0.4	-2	2.9	-2	4.5	3.2

Another view of 2 compounds above.
Each structure is followed by: T cruzi repl, Calb FLC, Bfl-1 A1 inh, B2AR ag, LANA-H2A inh, Beta cell apopt, UCH37 DUB inh, RanGTP-Imp inh
- COc1ccc(CCN(Cc2ccccn2)C(=S)Nc2ccccc2F)cc1OC
  -4, -8, -0.1, 15, 0.8, 3, 2.7, -2.3
- CCOC(=O)C[C@H]1c2cc(F)ccc2S(=O)(=O)N1C1CCCC1
  11, 0, 2.1, -3, 0.1, -4, 0.3, -0.3

Rows were taken by chance. About 4.3% of those tested had a hit in this group.
